Menin-MLL FL inh: qHTS Assay for Inhibitors Targeting the Menin-MLL Interaction in MLL Related Leukemias: Competition With Fluorescein Labeled MLL-derived Peptide; FP activity change, % at 61.4 µM; Fluorescence polarization, fluorescein-MLL peptide displacement from menin; 290,000 tested, under 10 active; inconclusive = falling polarisation curve, or a change in total fluorescence; inactive = total fluorescence flat and polarisation flat or rising; no compound was filed as active; the % refers to the polarisation; negative = inhibition;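 further: % of control where 0% means no effect; inhibitors lower the polarisation; unlabelled MLL peptide was the positive control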
gsp antagonist: qHTS for Antagonists of gsp, the Etiologic Mutation Responsible for Fibrous Dysplasia/McCune-Albright Syndrome: qHTS; gsp-mutant cells, cAMP HTRF, 30 min; control for the full effect not named in the record; Potency, µM (titrated, usually from 76.9 µM), for the others: at the top dose activity change, negative = inhibition, usual class: inhibitors; 0.4% of 340,000 active; active = falling curve of any shape with a large fitted effect; inconclusive = falling curve, mostly with a smaller effect; inactive = flat or rising curve; cell line not stated here;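 further: intracellular cAMP measured with PDE inhibitor Ro 20-1724 present during compound exposure; potency means the concentration at half of the fitted maximal effect; on the % scale 0 is the no-effect control and ±100 the full control effect; nearly all actives have a fitted effect of over 65% in size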
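G418-selected cells were plated in DMEM/10% FBS for 16-24 h at 37C, then treated with compounds plus the PDE inhibitor […] (300 uM solution added) for 30 min at 37C. Intracellular cAMP was measured by HTRF after 30 min lysis at room temperature.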
ClpP mod: qHTS Assay for Activators of ClpP | ATP-dependent Clp protease proteolytic subunit (Bacillus subtilis (strain 168)), P80244 | purified B. subtilis ClpP, FRET peptide cleavage, 20 min | Potency, µM (series often up to 57.5 µM), inactives show top-dose activity change, negative = active | 1.9% of 340,000 active; active = well fitted falling curve with a large enough effect; inconclusive = small, poorly fitted or top-dose-only effect; inactive = no such curve, though single readings can be large or run the other way; further: potency means the concentration at half of the fitted maximal effect; the source files actives as falling curves though it sought activators and does not explain the sign; nearly all actives have a fitted effect of over 65% in size; many hits overshoot -100%
Target sequence (P80244 whole entry, looked up): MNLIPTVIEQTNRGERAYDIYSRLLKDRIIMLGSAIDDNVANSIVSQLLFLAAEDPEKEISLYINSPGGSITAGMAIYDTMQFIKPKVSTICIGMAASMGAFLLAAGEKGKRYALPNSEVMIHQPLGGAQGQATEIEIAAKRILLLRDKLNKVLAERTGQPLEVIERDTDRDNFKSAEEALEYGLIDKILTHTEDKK
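FRET quenching reversal measured ClpP activation: 10 microg/mL B. subtilis ClpP at pH 8 with the FRET-FV decapeptide, read at 430 nm after 320 nm excitation. The 20-min minus 0-min signal was scaled between DMSO/no-enzyme wells and ADEP (5.8 microM final).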
gsp agonist: qHTS for Agonist of gsp, the Etiologic Mutation Responsible for Fibrous Dysplasia/McCune-Albright Syndrome: qHTS; gsp mutant cells, cAMP HTRF, 30 min; control for the full effect not named in the record; Potency, µM (doses to about 76.9 µM), without a hit: at the highest dose activation (cAMP increase), actives largely listed as activators; 0.13% of 340,000 active; active = well fitted activation curve with a large enough effect; inconclusive = small, poorly fitted or top-dose-only effect, or another doubt; inactive = no such curve, though single readings can be large or run the other way; cell line not stated here;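 further: phosphodiesterase inhibitor Ro 20-1724 added with compounds to block cAMP breakdown; potency means the concentration at half of the fitted maximal effect; nearly all actives have a fitted effect of over 60% in size; about a fifth of the inactives were tested at one dose only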
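Cells stably selected in G418 were plated at 2000/well, grown 16-24 hr, then given compounds in DMSO with the PDE inhibitor […] (300 uM solution added) for 30 min at 37C; cAMP was read by HTRF.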
TRPV1 potentiator: HTS Assay for Compounds that Act as Potentiators of the Vanilloid Receptor 1 | potentiation, % at 8.33 µM | 0.02% of 320,000 active | Transient receptor potential cation channel subfamily V member 1 (Homo sapiens), Q8NER1 | TRPV1-expressing cells, Fluo-8 calcium influx, capsaicin EC20 potentiation; host cell line not named in the record; control for the full effect not named in the record; active means potentiation above 80%; inconclusive means 30% to 80%; inactive means below 30%; further: 0% is about no effect
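Fluo-8 calcium influx in TRPV1-expressing cells, kinetic read (ex 480/em 520 nm). Compound added and read 3 min for agonist activity, followed by capsaicin at EC20 final and 2 min further read for enhancement.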
Sfp inh: qHTS Assay for Inhibitors of Bacillus subtilis Sfp phosphopantetheinyl transferase (PPTase); Potency, µM, for the others: max response, negative = inhibition, actives largely listed as inhibitors; 3.5% of 310,000 active; Biochemical Sfp PPTase activity, qHTS; active means well fitted inhibition curve with a large enough effect; inconclusive means small, poorly fitted or top-dose-only effect, or another doubt; inactive means no such curve, though single readings can be large or run the other way;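 further: the enzyme is Sfp with the accession as filed and its product quenches rhodamine fluorescence; potency means the concentration at half of the fitted maximal effect; 0% = enzyme reaction without inhibitor and -100% = no enzyme wells; top concentration of the series not given in the record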
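Step 1, compound plus 15 nM Sfp-PPTase, 15 min, room temperature. Step 2, add rhodamine-CoA (5 uM) and BHQ-2-YbbR (12.5 uM). Step 3, read 525/598 nm fluorescence at 0 and 30 min.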
D2 potentiator: Beta-Arrestin HTS for Positive Allosteric Modulators of the Human D2 Dopamine Receptor: Potentiators; AID 624464, 2012; potentiation, % (test concentration not listed); DiscoveRx D2 beta-arrestin cells, luminescence, 90 min; 100% = 57 uM dopamine signal; 0.23% of 360,000 active; active = potentiation of 50% or more; inconclusive = 30% to 50%; inactive = 30% or less;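 further: compound concentration not given in the record; tested on top of an EC20 dose of dopamine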
Target sequence (P14416 whole entry, looked up): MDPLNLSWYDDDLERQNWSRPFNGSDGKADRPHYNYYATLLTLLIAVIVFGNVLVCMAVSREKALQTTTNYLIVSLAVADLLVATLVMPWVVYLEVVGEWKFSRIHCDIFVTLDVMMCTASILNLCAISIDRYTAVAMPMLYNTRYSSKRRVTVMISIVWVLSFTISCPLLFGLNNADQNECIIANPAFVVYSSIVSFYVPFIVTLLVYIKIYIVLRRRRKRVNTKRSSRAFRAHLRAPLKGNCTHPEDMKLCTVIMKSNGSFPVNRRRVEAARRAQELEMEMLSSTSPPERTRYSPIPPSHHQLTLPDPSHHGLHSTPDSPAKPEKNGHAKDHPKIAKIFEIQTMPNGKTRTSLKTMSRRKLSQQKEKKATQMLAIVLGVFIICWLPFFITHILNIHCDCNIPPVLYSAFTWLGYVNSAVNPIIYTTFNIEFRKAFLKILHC
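PathHunter beta-arrestin assay in DiscoveRx D2 cells. Compounds were added with an EC20 of dopamine (50 nM final) for 90 min at 37 deg C. Luminescence was read 1 h after detection reagent, with 57 uM dopamine as the EC100 control.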
* = called active by the depositor; ? = inconclusive; / = no result given; [ ] = remark or other dose. This is a subset, so the mix of outcomes need not match the whole.

The line under a structure holds: gsp agonist | D2 potentiator | TRPV1 potentiator | gsp antagonist | Menin-MLL FL inh | Sfp inh | ClpP mod
CC(C)CC(NC(=O)CCCNC(=O)CCC(=O)OC1O[C@H]2OC3(C)CC[C@H]4[C@H](C)CCC(C1C)C24OO3)C(=O)O (some centres undefined)
    ? | 15 | -2 | 6% | 4.9 | 13% | /
COc1ccc(OCC(=O)N2CCN(C(C)C)CC2)cc1
    8% | 3 | -1 | -8% | 4.4 | -19% | -2.1%
CCN1CCN(C(=O)COc2ccc(S(=O)(=O)N(C)Cc3ccccc3)cc2)CC1
    1% | -12 | 10 | 4% | -2.7 | -3% | -1.5%
COc1ccccc1N1CCN(C2CCN(C(=O)c3cc(OC)c(OC)c(OC)c3)CC2)CC1
    -19% | -11 | -7 | 5% | 3.5 | -27% | -1.8%
CN1CCN(c2ccc(N)c(N3CCN(C)CC3)c2)CC1
    -9% | 3 | 22 | -28% | -12 | -13% | -1.1%
Cc1cc(OCC(=O)NC2CCS(=O)(=O)C2)c2c3c(c(=O)oc2c1)CCC3 (centres undefined)
    9% | -6 | -8 | -13% | 0.6 | 8% | 3.2µM*
CC[n+]1c(/C=C/N(C)c2ccccc2)sc2ccc(Cl)cc21
    -42%[inhibitor] | -30 | 2 | 1% | 3.3 | -19% | -8.6%
O=C1NC(=O)N(Cc2ccco2)C(=O)/C1=C\c1cccn1CCOc1ccc(Cl)cc1
    -12% | -9 | 2 | 6% | ? | 45µM* | 1.8%
O=C(CN1CCCCC1)c1ccc(OC(F)F)cc1
    5%[15.4 µM] | -16 | -6 | 9% | -0.5 | 4% | -4.1%
C[C@@H]1CN([C@@H](C)CO)C(=O)CCCn2cc(nn2)CO[C@H]1CN(C)C(=O)Oc1ccc2ccccc2c1
    -53%[inhibitor] | 10 | / | / | / | / | 1.2%
Cc1ccc(-c2nc3ccccc3c(=O)n2-n2cccc2)cc1
    -28% | -13 | 3 | 4% | 4.3 | 16% | -1.6%
CSc1ncc(CN2CCCC(C(=O)c3cccc(Cl)c3)C2)cn1 (centres undefined)
    -6% | -30 | 29 | -3% | 2.2 | 12% | -0.2%
NNc1n[nH]c(=S)n1N
    -17% | -6 | 27 | 6% | -4.1 | 2.8µM* | /
Cc1ccsc1C(=O)C1CCCN(Cc2ccc(-n3cccn3)cc2)C1 (centres undefined)
    -3% | -30 | 2 | -4% | -4.7 | 19% | 1.6%
Nc1ccc(Cl)cc1C(=O)c1ccccc1
    -24% | -4 | 2 | 0% | -0.6 | 9% | /
O=C1C2CCCC1C(N1CCCCC1)CC2 (centres undefined)
    -4%[15.4 µM] | -7 | 0 | -12% | -1.2 | 4% | -12%
COC(=O)C1=C(c2ccc(Cl)c(C(F)(F)F)c2)C[C@@H]2CC[C@H]1N2C(=O)NCCOc1ccc(OC)cc1
    11% | -5 | 0 | -7% | / | / | -2.7%
CC(C)Oc1cccnc1N(C)C1CCN(Cc2ccccc2)CC1
    / | -38 | / | -12% | 6.9 | / | -25%
CC1(C)C[C@H]2C=C(C=O)[C@]3(C=O)C[C@]3(C)[C@H]2C1
    / | -70 | 9 | 10% | 3.8 | ? | 0.0%
O=c1[nH]c(=S)n(-c2ccccc2)c(O)c1/C=N/N1CCCCC1c1cccnc1 (centres undefined)
    13% | 1 | -9 | 3% | ? | 50µM* | /

Brought forward from above: 2 entries; new compounds follow.
The line under a structure holds: gsp agonist | D2 potentiator | TRPV1 potentiator | gsp antagonist | Menin-MLL FL inh | Sfp inh | ClpP mod
CC1(C)C[C@H]2C=C(C=O)[C@]3(C=O)C[C@]3(C)[C@H]2C1
    / | -70 | 9 | 10% | 3.8 | ? | 0.0%
O=c1[nH]c(=S)n(-c2ccccc2)c(O)c1/C=N/N1CCCCC1c1cccnc1 (centres undefined)
    13% | 1 | -9 | 3% | ? | 50µM* | /
CN1CCC(O)(c2ccccc2)C(C(=O)c2ccccc2)C1 (centres undefined)
    -19% | -31 | -2 | 1% | 1.7 | 1% | 0.3%
CCC(=O)N1CC(=O)Nc2ccc(Cl)cc2C1c1ccc(F)cc1 (centres undefined)
    -3% | 0 | -6 | -5% | 0.6 | 6% | -1.6%
CCOC(=O)C(O)(c1ccc(NC(=O)NC2CCCCC2)cc1)C(F)(F)F (centres undefined)
    -32%[inhibitor] | -5 | -7 | 4% | 0.1 | 3% | -1.4%
CC1=CC(=O)OC2CC3OC4C[C@@H](C)C5OC6CC7O[C@]8(C)C/C=C\C9OC%10CC%11OC(CC(C)C%12OCCO%12)CC(O)[C@]%11(C)OC%10CC9OC8C[C@]7(C)O[C@]6(C)CCC5OC4C[C@]3(C)OC12 (some centres undefined)
    / | -1 | / | 2% | / | / | -0.3%
O=c1[nH]c(=O)n(Cc2ccco2)c(O)c1C=NCc1ccc2c(c1)OCO2
    -36% | -1 | -3 | 10% | 6.0 | ? | 0.6%
COc1ccc(NC(=O)N2C[C@@H]3C[C@@H](C2)c2cccc(=O)n2C3)c(OC)c1
    / | -27 | -6 | 5% | -0.3 | 6% | 1.3%
OC12CCCCC1C(c1ccccc1)NCC2 (centres undefined)
    -24% | -5 | -1 | 3% | -0.9 | 18% | 0.1%
CC/C(=N\Nc1ccccc1)c1c(O)n(-c2ccccc2)c(=O)[nH]c1=O
    -1%[15.4 µM] | 1 | 4 | -2% | -0.7 | 7% | 0.1%
COCCN1C(=O)/C(=C/c2c(OC)cc(OC)cc2OC)C(=O)N(c2ccccc2)C1=O
    -42%[inhibitor] | 2 | 2 | -4% | 1.4 | 21% | 21%
O=P1(NCc2ccco2)COc2ccccc2OC1
    9% | 10 | 1 | 12% | 3.1 | 11% | 0.9%
COC(=O)[C@@H]1C(OC(=O)c2ccccc2)CC2CCC1N2C (some centres undefined)
    / | -2 | / | -5% | / | / | -3.6%
COc1cccc2cc(-c3cc(=O)oc4ccc(OC(=O)N(C)C)cc34)oc12
    13% | -1 | -5 | -10% | -1.4 | -21% | -7.8%
COCCNC(=S)N1Cc2ccccc2-n2nncc2C1
    1% | -4 | / | / | / | / | -2.8%
S=C(Nc1ccccc1)Nc1ccccn1
    ? | -15 | / | / | / | / | -4.6%
CCNC(=O)CCSc1nc2cc(Cl)ccc2o1
    -50%[inhibitor] | 2 | -14 | 4% | -0.6 | 19% | -0.3%
COC(=O)C1=C(c2ccc(-c3ccccc3)c(F)c2)C[C@@H]2CC[C@H]1N2C(=O)NC1CC1
    -14% | -9 | -8 | ? | / | / | -0.4%
Nc1nc(SCc2ccc(F)cc2)n[nH]1
    19% | 2 | 21 | 8% | -2.2 | 5% | 0.3%
COC(=O)C1=C(c2ccc3ccccc3c2)C[C@@H]2CC[C@H]1N2C(=O)NC(C)C
    -6% | -6 | 10 | 6% | / | / | 0.9%
CCCCn1c(O)c(C(C)=NCCN2CCOCC2)c(=O)[nH]c1=O
    5% | -10 | 18 | 5% | 0.7 | 21% | 0.7%
CN1CC[C@]2(c3cccc(O)c3)Cc3nc4ccccc4cc3C[C@H]2C1
    / | / | 2 | / | ? | -11% | /
CC[C@H]1CN(C)CCc2c([nH]c3ccccc23)C(=O)C[C@@H]1/C(=C\OC)C(=O)OC
    / | -37 | / | 9% | / | / | -4.1%
Cc1cc(NC(=O)CCl)on1
    -9%[15.4 µM] | -3 | 8 | 10% | 0.7 | 13% | /
O=C1NC(=O)C(=Cc2ccc(-c3ccc(Cl)cc3)o2)C(=O)N1
    / | -9 | -30 | -27% | -0.3 | 20µM* | 3.2%
COc1cccc(C2(O)CCSCC2CN(C)C)c1 (centres undefined)
    2% | 1 | -1 | 3% | -1.5 | 5% | 3.5µM*
O=C(c1cccc(Cl)c1)C1CCCN(Cc2ccon2)C1 (centres undefined)
    -45%[inhibitor] | -10 | 17 | -1% | -1.3 | 0% | 0.9%
c1ccc2c(CCNCc3ccc4c(c3)OCO4)c[nH]c2c1
    2% | -15 | 5 | 10% | 1.2 | 35µM* | -0.9%
O=C1CN=C(c2ccccc2Cl)c2cc(Br)ccc2N1
    3% | -4 | / | -10% | / | / | /
CCOP(=O)(OCC)C(c1ccccc1)N(C)C=O (centres undefined)
    ? | -7 | 8 | 13% | 1.6 | 12% | 1.0%
CCN(CCNc1ccc([N+](=O)[O-])c2cccnc12)S(=O)(=O)c1ccccc1
    14% | -5 | 0 | -5% | 0.2 | 8% | 1.3%
CCOP(=O)(OCC)C1(O)C(=O)Nc2ccc(Br)cc21 (centres undefined)
    -42%[inhibitor] | -17 | -15 | -9% | -5.2 | 25% | -0.5%
COc1ccc(C(=O)OC2CC3CCC(C2)[N+]3(C)[O-])cc1OC (centres undefined)
    13% | -15 | -7 | 13% | 0.1 | 11% | -5.8%
Cc1ccccc1-n1c(/C=C/c2ccccn2)nc2ccccc2c1=O
    18% | -4 | 24 | -13% | -7.3 | 14% | 1.1%

Reprinted at random: 3 records from the list, in no set order.
The line under a structure holds: gsp agonist | D2 potentiator | TRPV1 potentiator | gsp antagonist | Menin-MLL FL inh | Sfp inh | ClpP mod
O=C1NC(=O)C(=Cc2ccc(-c3ccc(Cl)cc3)o2)C(=O)N1
    / | -9 | -30 | -27% | -0.3 | 20µM* | 3.2%
O=C1CN=C(c2ccccc2Cl)c2cc(Br)ccc2N1
    3% | -4 | / | -10% | / | / | /
Cc1ccccc1-n1c(/C=C/c2ccccn2)nc2ccccc2c1=O
    18% | -4 | 24 | -13% | -7.3 | 14% | 1.1%

Assay outcomes (PubChem)
